Screening results deposited in PubChem BioAssay by National Center for Advancing Translational Sciences (NCATS).
GLA inh pH 4.5: inhibitors of human alpha-galactosidase A at pH 4.5. P06280. purified enzyme, 4-MU-alpha-Gal fluorescence, pH 4.5. activity change, negative = inhibition, % at 105 µM. 230,000 tested, under 10 active. AID 1467; inconclusive = small, poorly fitted or top-dose-only inhibition, or a rising curve; inactive = flat fitted curve, though single readings scatter; no compound was filed as active;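 further: 0% = full activity with enzyme and -100% = basal without enzyme; dose as in the result columns while the protocol names 77 µM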
Rango release inh: inhibitors of RanGTP-induced Rango-importin beta complex dissociation | AID 540253 | O95149+P62826 | Biochemical FRET Rango-importin beta, RanGTP-induced dissociation | 340,000 tested, 0.071% active | Potency, µM (top dose mostly 46.1 µM), inactives show at the top dose activity change, negative = inhibition; active means falling FRET ratio curve, often poorly fitted, with flat reads before Ran was added; inconclusive means other falling curves, or compound fluorescence or quenching; inactive means flat or rising ratio curve;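 further: potency means the concentration at half of the fitted maximal effect; % of control where 0% means no effect; nearly all actives have a fitted effect of over 45% in size; -100% = wells without RanGTP and RCC1; the record marks most hits as doubtful in a second field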
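Quantitative HTS using a FRET biosensor: 0.1 uM Rango, 0.25 uM importin beta, 0.6 uM Ran, 2 mM GTP, 0.2 uM RCC1 final, PBS with DTT, Tween-20 and BSA. Post-read taken 45 min after Ran addition.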
Rango-impB inh: Rango-importin beta binding inhibition; Q14974; Rango CFP/YFP FRET sensor + importin beta, 45 min; Potency, µM (titrated, usually from 92.2 µM), without a hit: at the top dose inhibition of complex formation; 340,000 tested, 0.031% active; AID 540263; active = rising FRET ratio curve, often small or poorly fitted; inconclusive = mostly compound fluorescence or quenching in the first reads; inactive = flat curves in all reads;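 further: potency means the concentration at half of the fitted maximal effect; 0% = DMSO wells and 100% = buffer wells lacking importin beta; nearly all actives have a fitted effect of over 15% in size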
Target sequence (Q14974 whole entry, looked up): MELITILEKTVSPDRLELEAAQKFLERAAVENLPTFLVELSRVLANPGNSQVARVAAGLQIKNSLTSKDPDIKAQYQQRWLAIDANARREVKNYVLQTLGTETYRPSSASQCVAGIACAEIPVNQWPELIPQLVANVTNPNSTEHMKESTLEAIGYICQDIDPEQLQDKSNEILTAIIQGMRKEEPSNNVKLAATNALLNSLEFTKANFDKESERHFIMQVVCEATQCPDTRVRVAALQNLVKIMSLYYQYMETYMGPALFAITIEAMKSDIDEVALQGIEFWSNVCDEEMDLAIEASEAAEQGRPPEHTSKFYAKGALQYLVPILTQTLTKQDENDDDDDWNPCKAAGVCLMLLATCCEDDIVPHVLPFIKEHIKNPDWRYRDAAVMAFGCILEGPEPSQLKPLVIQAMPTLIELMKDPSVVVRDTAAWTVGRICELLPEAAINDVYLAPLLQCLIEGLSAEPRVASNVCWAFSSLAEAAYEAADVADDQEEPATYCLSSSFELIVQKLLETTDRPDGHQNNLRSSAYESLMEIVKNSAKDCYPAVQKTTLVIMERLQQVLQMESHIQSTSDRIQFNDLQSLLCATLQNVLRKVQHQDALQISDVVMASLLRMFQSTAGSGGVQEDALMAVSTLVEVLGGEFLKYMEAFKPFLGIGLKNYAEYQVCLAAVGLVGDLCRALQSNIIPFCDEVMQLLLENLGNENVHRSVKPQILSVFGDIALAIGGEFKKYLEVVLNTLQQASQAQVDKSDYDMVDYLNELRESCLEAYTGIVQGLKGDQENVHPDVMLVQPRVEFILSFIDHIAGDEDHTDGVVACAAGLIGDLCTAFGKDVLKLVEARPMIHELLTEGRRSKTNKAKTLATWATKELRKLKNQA
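FRET biosensor Rango (snurportin 1 IBB between N-terminal EYFP and C-terminal Cerulean), 50 nM in PBS/1 mM DTT/0.02% Tween-20/0.1% BSA, preincubated 5 min RT with compound; 0.125 microM importin beta added, 45 min RT, CFP/YFP FRET ratio read.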
miR-21 FLuc: raises the signal of a miR-21 reporter | HeLa miR-21 FLuc reporter, luciferase, 48 h | 340,000 tested, under 10 active | AID 2288 | Potency, µM (highest dose often 38.3 µM), inactives show at the highest dose reporter change, positive = more light; active = well fitted rising curve with a large enough effect; inconclusive = small, poorly fitted or top-dose-only effect; inactive = no such curve, though single readings can be large or run the other way;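 further: % of control where 0% means no effect; miR-21 action dims this reporter so a rising signal means less miR-21 action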
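HeLa cells endogenously expressing miR-21, stably carrying CMV-driven firefly luciferase with a downstream miR-21 binding site, 2000 cells/well. Titrations up to approximately 40 uM, 48 hours; luciferase luminescence read.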
Active calls of the source: *; ? = inconclusive; . = not tested or not shown; & = joins results of further samples. This is a subset; count on the stated rates, not on these rows.

Start of the listing, in advance, two compounds:
SMILES | GLA inh pH 4.5 | Rango release inh | Rango-impB inh | miR-21 FLuc
O=C(CSc1ncnc2c1oc1ccccc12)NCc1ccc(F)cc1 | 1 | -9% | -5.6% | -2%
FC(F)(F)c1cnc(-n2cc[nH]c2=S)c(Cl)c1 | -18 | -12% | 6.6% | 1%

Main list (from the top)
SMILES | GLA inh pH 4.5 | Rango release inh | Rango-impB inh | miR-21 FLuc
O=C(CSc1ncnc2c1oc1ccccc12)NCc1ccc(F)cc1 | 1 | -9% | -5.6% | -2%
FC(F)(F)c1cnc(-n2cc[nH]c2=S)c(Cl)c1 | -18 | -12% | 6.6% | 1%
CC(=O)N1c2ccccc2C(C)(C)C2CCC(C)CC21 (centres undefined) | 4 | 4% | ? | -6%
Cc1ccc(C(=O)NC(=S)NNC(=O)CCN2CCOCC2)cc1 | 1 | -4% | 0.6% | -13%
COc1cccc(-c2nn(C)c3sc(C(=O)NCCCN(C)Cc4ccccc4)cc23)c1 | . | -16% | -7.1% | -15%
CCC1=Nc2cc(C(=O)NCc3cccnc3)ccc2Sc2ccc(C)cc21 | -3 | -11% | 2.3% | ?
Cc1ccc(CNC(=O)COC(=O)c2cnccn2)cc1 | -10 | 0% | 0.4% | -2%
Cc1cc(Cl)c(S(=O)(=O)N2CCN(c3ccc(F)cc3)CC2)cc1OCC(N)=O | -1 | -7% | -3.6% | 1%
Cn1cnc(S(=O)(=O)NCc2ccccc2)c1 | -5 | -1% | -1.4% | -1%
CC1CCN(CCCCOc2ccc(C(C)(C)C)cc2)CC1 | . | 1% | 3.0% | -5%
COc1ccccc1CCn1c(N)c(C#N)c2nc3ccccc3nc21 | 9 | ? | ? | 1%
CC(C)[C@H](NC(=O)OC(C)(C)C)c1nnc(SCC(=O)Nc2ccc(Br)cc2)o1 | 0 | -19% | -0.2% | -3%
COC(=O)c1sc(N2C(=O)C(=O)/C(=C(/O)c3ccc(C)cc3)C2c2ccco2)nc1C (centres undefined) | -2 | -11% | ? | -7%
NS(=O)(=O)c1ccc(NN=C2CCCCC2)c([N+](=O)[O-])c1 | -3 | 28% | 0.8% | 0%
CCOc1cc(N2CCOCC2)c(OCC)cc1NC(=O)COC(=O)c1ccccc1C | 7 | -12% | -3.6% | -3%
Cc1ccc(S(=O)(=O)CCC(=O)NCCc2ccccc2)cc1 | . | -2% | 0.4% | -18%
O=C(CN1CCN(S(=O)(=O)c2ccc(Cl)c(Cl)c2)CC1)N1CCCC1 | . | -17% | 0.5% | .
N/C(=N\OC(=O)Cc1ccccc1)c1ccncc1 | 4 | -6% | -0.4% | -14%
NC(=O)c1nsc(C(=O)N(Cc2cccnc2)C(C(=O)NCc2ccccc2)c2ccc(O)cc2)c1N (centres undefined) | . | 8% | -3.4% | 5%
COc1ccc(-n2c3c(cc(C#N)c2=O)C(=O)CCC3)cc1 | -2 | -23% | 4.0% | 1%
Cc1ccc(S(=O)(=O)N2CCC(=O)N(C(COCc3ccc(C(F)(F)F)cc3)C(C)C)CC2)cc1 (centres undefined) | -23 | 13% | 7.4% | 13%
CCN1CCN(S(=O)(=O)c2c(C)cc(C)cc2C)CC1 | . | ? | -0.2% | 2%
CC(=O)N/C(=N\c1nc(C)cc(C)n1)Nc1ccccc1Cl | . | -8% | 0.7% | -1%
COc1ccc(CNC(=O)CCCn2ccc3cc(S(=O)(=O)N4CCCC4)ccc32)cc1 | . | 9% | -2.1% | 26%&27%
O=C(CN1C(=O)CCOc2ccccc21)Nc1ccc(Cl)c(S(=O)(=O)N2CCOCC2)c1 | . | 35% | 2.5% | .

(further entries)
SMILES | GLA inh pH 4.5 | Rango release inh | Rango-impB inh | miR-21 FLuc
Brc1cc2c(cc1/C=N/Nc1nc(N3CCCCC3)nc(N3CCCCC3)n1)OCO2 | -1 | . | . | 0%
CC(=O)Nc1cc(C)c2nc(NC(C)=O)sc2c1 | 0 | 3% | -4.1% | -36%
O=C(NN=C1CCC(=NNC(=O)c2ccccn2)CC1)c1ccccn1 | -19 | 0% | 4.5% | -49%
COc1cc2[nH]c(C(=O)N(C)Cc3ccccc3)cc2c(OC)c1OC | . | 14% | -0.9% | 6%
Nc1ccc(Nc2nc(-c3cc4ccccc4oc3=O)cs2)cc1 | 4 | 4% | ? | -66%
CC(NC(=O)CSc1nc2c(cc1C#N)CN(C)CC2)c1ccccc1 (centres undefined) | -1 | -14% | ? | -9%
CCCSC(=S)c1c(C)[nH]n(-c2ccccc2)c1=O | 3 | 2% | -1.8% | 18%
Nc1ccc(S(=O)(=O)Nc2nccc(/C=C/c3ccc([N+](=O)[O-])cc3)n2)cc1 | . | -8% | -1.4% | 2%
CCOC(=O)CSc1nc(C)c(C(C)=O)cc1C#N | 2 | -1% | 0.7% | -31%
Cc1ccc(Cc2cnc(N3C(=N)SC(c4ccccc4)C3=O)s2)cc1 (centres undefined) | 1 | 2% | -0.8% | -18%
Cc1cccc(Cn2c(N(C)Cc3ccccc3)nc3c2c(=O)[nH]c(=O)n3C)c1 | 6 | 14% | 3.6% | 2%
Cc1cc(NC(=S)N(Cc2cccc(Br)c2)CC2CCC(C(=O)O)CC2)ccc1Cl (centres undefined) | -12 | 21% | -4.0% | 1%
C[C@@H](C(=O)NC1CCN(Cc2ccccc2)CC1)N1C(=O)N2CCc3c([nH]c4ccccc34)[C@@]2(C)C1=O | . | 2% | -0.4% | 10%
O=C1c2ccccc2N2C(=O)c3ccccc3C2N1O (centres undefined) | 2 | 12% | 5.5% | -5%
CCCOCC(O)CC(Cc1ccccc1)C(=O)NN (centres undefined) | 4 | 2% | 3.0% | -1%
CCCCn1c(N)c(N(C)C(=O)c2ccc(OCC3CCCO3)cc2)c(=O)[nH]c1=O (centres undefined) | . | -3% | -0.9% | .
CC1(C)CC(=O)C(/C=N/n2c(C(F)(F)F)nc3ccccc3c2=O)=C(O)C1 | 6 | -7% | ? | -2%
CCn1c(SCC(=O)N(C)C2CCS(=O)(=O)C2)nnc1-c1ccccc1 (centres undefined) | 4 | 17% | 4.0% | 0%
COc1ccc(COC(=O)N/N=C(\C)CC(=O)Nc2ccc(Cl)cc2)cc1 | -3 | -13% | -0.4% | -22%
CCNc1nc(NCC)nc(N/N=C/c2ccc(O)c(OC)c2)n1 | -1 | -2% | -1.4% | -7%
CCCCc1nnc(NC(=O)c2ccc(-n3cncn3)c([N+](=O)[O-])c2)s1 | . | -8% | -0.2% | .
Nc1ccc2nn(-c3cccc4ccccc34)nc2c1 | 1 | ? | ? | 7%
Cc1cc(NC(=O)CNCC(c2ccccc2)N(C)C)c([N+](=O)[O-])cc1C (centres undefined) | . | -19% | -4.7% | -4%
C=CCn1c(SCC(=O)N(C)C)nc2sc3c(c2c1=O)CCC3 | . | 31% | -0.4% | -4%
CCC(C)(C)n1nnnc1C(c1cc2ccc(OC)cc2[nH]c1=O)N1CCc2ccccc21 (centres undefined) | -6 | -24% | -1.8% | 13%

(further entries)
SMILES | GLA inh pH 4.5 | Rango release inh | Rango-impB inh | miR-21 FLuc
Cc1nn(Cc2ccccc2)c(C)c1NC(=O)CCCn1nc([N+](=O)[O-])c(Cl)c1C | 10 | 34% | -6.8% | -11%
CCOP(=O)(c1ccc(N(C)C)cc1)C(O)c1ccncc1 (centres undefined) | -4 | -2% | -5.8% | 1%
Cn1nc(-c2ccccn2)nc2c(=O)n(C)c(=O)nc1-2 | -3 | -16% | -5.2% | ?
Cn1c(Cc2cccs2)nnc1SCC(=O)N1CCCc2ccccc21 | 3 | 6% | 5.1% | -1%
O=C1CN(C(=O)COc2ccc(F)cc2Cl)c2ccccc2N1 | -10 | 14% | 0.8% | -29%
O=C(CN1C(=O)CSc2ccccc21)NC1CCCC1 | -4 | 21% | -1.5% | -1%
Cc1oc(=O)c(NC(=O)c2ccccc2)cc1C(N)=O | -1 | 8% | -0.1% | -4%
COc1ccccc1N1CCN(C(=O)C2CCN(S(=O)(=O)c3ccc(F)cc3)CC2)CC1 | -12 | 8% | -0.8% | 1%
CN(C)S(=O)(=O)c1ccc(Cl)c(NC(=O)CN2CCN(Cc3ccc4c(c3)OCO4)CC2)c1 | 0 | -2% | -0.5% | -2%
COc1ccc(NC2CS(=O)(=O)CC2NCc2ccccc2)cc1 (centres undefined) | 0 | -5% | -1.4% | -6%
CC(C)(C)n1nc2c(c1NC(=O)c1ccccc1F)CS(=O)C2 (centres undefined) | -15 | -21% | -1.3% | 1%
COc1ccccc1OCc1cc(C(=O)N2CCCC(OCc3cccnc3)C2)no1 (centres undefined) | . | -10% | 0.0% | -41%
Cc1ccc(NC(=O)Nc2cccc(Cl)c2)c(C(=O)O)c1 | -4 | 11% | 2.4% | -31%
CCN(CC)C(=N)/C(C#N)=N/Nc1ccccc1 | -11 | 0% | 5.1% | -39%
Oc1cc(Nc2ccncc2)cc2cccnc12 | . | ? | 41µM* | .
CC1(C)NC(=O)N(CC(O)CN2CCCC2)C1=O (centres undefined) | -7 | -7% | -0.4% | -4%
Fc1ccc(CNCc2ccc3c(c2)OCO3)cc1 | . | 15% | 0.3% | -9%
COc1ccc(CN(C)CC(O)COc2ccc(C(=O)c3ccccc3)cc2)c(OC)c1OC (centres undefined) | . | -6% | 2.4% | 17%
Cn1cc(C(=O)CCl)c2ccccc21 | 1 | 7% | 0.9% | ?
N#CC1=C2SCC(O)(c3ccccc3)N2C(=O)CC1c1ccccc1F (centres undefined) | -3 | -23% | 3.5% | 15%
O=c1c(-c2ccc(O)cc2)coc2c(C3O[C@H](CO)[C@@H](O)[C@H](O)[C@H]3O)c(O)ccc12 (some centres undefined) | . | 1% | 2.6% | -2%
CCCOc1ccccc1Cn1c(=O)oc2ccccc21 | . | -4% | 16% | -3%
CCc1ccc(NC(=O)CSC2=C(C#N)C(c3ccco3)C3=C(CCCC3=O)N2)cc1 (centres undefined) | -9 | -1% | -0.6% | 23%
NS(=O)(=O)c1ccc(N/C=C/C(=O)c2ccc(Br)cc2)cc1 | 6 | ? | ? | -32%
COC1=CC(=O)CC(C)C12Oc1cc(OC)cc(OC)c1C2=O (centres undefined) | 11 | 1% | -1.9% | 0%

Continuation.
SMILES | GLA inh pH 4.5 | Rango release inh | Rango-impB inh | miR-21 FLuc
O=C(CN1CCOCC1)Nc1ccc(OC(F)(F)F)cc1 | . | -6% | 2.4% | -31%
Cc1c(C)c2ccc(OCC(=O)N[C@@H](Cc3ccccc3)C(=O)O)cc2oc1=O | . | -7% | -0.5% | 3%
O=C(NCc1ccc(Cl)cc1)C1CCCN1C(=O)Nc1ccc(F)cc1 (centres undefined) | . | -2% | -2.4% | -4%
CCOc1ccccc1C(=O)N(Cc1cccs1)C1CCS(=O)(=O)C1 (centres undefined) | 6 | 2% | 0.1% | -8%
CN1C=CC=C/C1=C1/N=C(c2ccccc2)OC1=O | -4 | 0% | 0.9% | -3%
COc1ccc(S(=O)(=O)Nc2nnc(CC(C)(C)C)s2)cc1 | 1 | 0% | -0.3% | -6%
CCN(Cc1ccncc1)C(=S)Nc1c(C)cccc1C | 1 | 25% | -0.8% | 2%
COc1ccc(-c2c(C#Cc3ccsc3)c3cc(-c4ccc5cc[nH]c5c4)ccc3n2C)cc1 | . | -8% | ? | .
CCOc1ccc2nc(SCC(=O)NC(=O)C(C)C)sc2c1 | 0 | -15% | -7.4% | -18%
CC(=O)c1sc(NC(=O)c2cc(-c3ccccc3)nn2-c2ccccc2)nc1C | -5 | -3% | 0.0% | -8%

A second format for part of the listing above.
> CCOc1ccccc1C(=O)N(Cc1cccs1)C1CCS(=O)(=O)C1 (centres undefined)
  GLA inh pH 4.5: 6 | Rango release inh: 2% | Rango-impB inh: 0.1% | miR-21 FLuc: -8%

> CN1C=CC=C/C1=C1/N=C(c2ccccc2)OC1=O
  GLA inh pH 4.5: -4 | Rango release inh: 0% | Rango-impB inh: 0.9% | miR-21 FLuc: -3%

> COc1ccc(S(=O)(=O)Nc2nnc(CC(C)(C)C)s2)cc1
  GLA inh pH 4.5: 1 | Rango release inh: 0% | Rango-impB inh: -0.3% | miR-21 FLuc: -6%

> CCN(Cc1ccncc1)C(=S)Nc1c(C)cccc1C
  GLA inh pH 4.5: 1 | Rango release inh: 25% | Rango-impB inh: -0.8% | miR-21 FLuc: 2%
